# High-throughput results deposited in PubChem BioAssay by ICCB-Longwood Screening Facility, Harvard Medical School.
# fixLJ activator – activators of Burkholderia fixLJ two-component system, primary screen, B. multivorans, GFP reporter | 29,000 tested, 0.3% active | B. multivorans fixK-promoter GFP reporter, 18 h; stronger effect = higher value | AID 1918990, 2023 | z-score (concentration not given with the values);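 active = replicate mean overnight rise in green fluorescent reporter signal, 3 or more SD over negative controls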;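 also: score is relative to vehicle wells of the plate; 300 nL library stock went into each well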
# An asterisk follows results filed as active; & = joins results of further samples.
No.	SMILES	fixLJ activator
1	CCOC(=O)c1[nH]c2ccccc2c1NC(=O)c1ccccc1OC	-1.2
2	COc1ccccc1NC(=O)c1sc2nc3c(cc2c1N)CCCCCC3	-2.2
3	Cc1ccc(C)c2c(C)c(C(=O)N3CCC(O)(c4cccnc4)CC3)[nH]c12	0.38
4	CCOc1ccc(CNC(=O)C2CCN(c3nn4c(=O)cc(C)nc4s3)CC2)cc1	-1.3
5	Cc1cc(C)cc(N2CCN(C(=O)c3n[nH]nc3C)CC2=O)c1	-0.31
6	Cc1cccc(C)c1NC(=O)Cn1cc(C(=O)c2ccco2)c2ccccc21	-1.2
7	Cc1cccn2c(=O)c(/C=C(\C#N)c3nc4ccccc4s3)c(Oc3ccc(Br)cc3)nc12	-1.7
8	Cc1ccc(Cc2cn3cc(-c4ccc(F)cc4)nc3s2)cc1	-0.1
9	Cc1nc(SCc2ccccc2Cl)c(C#N)c(C)c1C	1.1
10	CCc1ccc(-n2nc3ccc(NC(=O)COc4ccc(OC)cc4)cc3n2)cc1	-0.4
11	Cc1nc2nc[nH]n2c(=O)c1NS(=O)(=O)c1ccc(Br)cc1	-1.1
12	Cc1ccc(NC(=O)c2ccsc2)cc1NC(=O)CN(C)C	-0.18
13	Clc1ccc2c(c1)-n1cc(-c3ccccc3)nc1CO2	0.43
14	Cn1cc(CN(C(=O)c2ccc(O)c(Cl)c2)C2CC2)cn1	1.2
15	COc1ccnc(C(=O)NCCc2csc(C(C)C)n2)c1	-1.1
16	Cc1ccc(Cn2c(Cc3ccccc3)nc3ccccc32)cc1	-2.2
17	Cc1ccc(C)c(NC(=O)Cn2c(=O)n(CCC(=O)NCc3ccc4c(c3)OCO4)c(=O)c3ccccc32)c1	-0.84
18	CCOC(=O)Cn1cc2c(c1-c1ccc(Cl)cc1)c(=O)n(C)c(=O)n2C	-2.3
19	Cc1cc(CC2CN(C(=O)c3ccc[nH]c3=O)CC2O)on1 (stereo not drawn)	-0.8
20	Cn1c(CCNC(=O)c2ccco2)nc2cc(NC(=O)COc3ccc(Cl)cc3)ccc21	-0.61
21	CCCNC(=O)c1cc2nc(-c3ccc(Br)cc3)cc(C(F)(F)F)n2n1	-0.39
22	N#Cc1ccccc1Cn1c(=O)n(-c2ccc(F)c(Cl)c2)c(=O)c2sccc21	0.46
23	CCCn1c(=N)c(C(=O)NCc2cccnc2)cc2c(=O)n3cc(C)ccc3nc21	-0.73
24	COC(=O)c1cc2oc3ccccc3c2n1CC(=O)Nc1cc(OC)cc(OC)c1	-2.3
25	Cc1ccc2nc(C(=O)N(CCN(C)C)CC3CCCO3)c(F)n2c1 (stereo not drawn)	0.23
26	CC1=C(C(=O)Nc2ccc(C)cc2C)C(C(C)C)n2nc(SCc3ccccc3Cl)nc2N1 (stereo not drawn)	0.78
27	CC(=O)c1ccc(NC(=O)CCCSc2nc(-c3ccco3)cc(C(F)(F)F)n2)cc1	0.17
28	CCc1ccc2oc(-c3ccc(NC(=O)c4cc(OC)c(OC)c(OC)c4)cc3)nc2c1	0.09
29	O=C(c1ccccc1F)N1CCC(c2nc3c(nnn3Cc3cccc(F)c3)c(=O)[nH]2)CC1	-1.3
30	COC(=O)c1cc2sc(C)cc2n1Cc1nc(-c2cccc(Br)c2)oc1C	-1.7
31	CCOc1ccc(CNC(=O)c2cc(-c3ccc(Cl)s3)nc3ccccc23)cc1	-1.2
32	COc1ccc(C2=C(N3CCN(c4cc(C)ccc4C)CC3)c3ccccc3C2=O)cc1	-0.78
33	Cc1[nH]c2c(F)cccc2c1CC(=O)N1CCCC(N)CC1 (stereo not drawn)	-0.09
34	CC1=C(C(=O)Nc2ccc(C)cc2C)C(c2ccc(C(C)C)cc2)n2nc(C(F)(F)F)nc2N1 (stereo not drawn)	-3.4
35	Cc1cccc(Cn2c(=O)n(-c3ccc(Cl)c(Cl)c3)c(=O)c3c(C)c(C)sc32)c1	-0.78
36	Cn1c(=O)c2c(nc(Oc3ccccc3Cl)n2Cc2ccc(C#N)cc2)n(C)c1=O	-1.7
37	O=C1N(Cc2ccccc2Cl)c2ccccc2C1(O)c1c[nH]c2ccccc12 (stereo not drawn)	-2.8
38	CCc1ccc(CNC(=O)CSc2cc(=O)n(CC)c3ccccc23)cc1	0.63
39	Cc1ccc(-c2ccnc(N3CCC4OCc5cnnn5C4C3)n2)c(C)n1 (stereo not drawn)	0.31
40	CCOc1ccc(NC(=O)CC2C(=O)N(c3cccc(OC)c3)C(=O)N2C2CCCCC2)cc1 (stereo not drawn)	-3.4
41	Cc1ccc(COc2ccc3oc(-c4ccccc4)c(C(=O)O)c3c2)cc1	-0.28
42	CN(CC1CCN(c2ccccc2)C1)C(=O)c1n[nH]c(=O)[nH]1 (stereo not drawn)	-1.3
43	CCOc1ccc(-c2cc3nc(C4CCN(C(=O)OC(C)(C)C)CC4)c(C(=O)Nc4c(C)cccc4C)cn3n2)cc1	-0.4
44	Cc1ccc(NC(=O)CSc2nc3ccc(Br)cc3[nH]2)c(C)c1	-0.86
45	CCCCCCCCCCCCCCCC(=O)OC[C@H](NC(=O)C(Cl)Cl)[C@H](O)c1ccc([N+](=O)[O-])cc1	-2.1
46	CN1CCN(c2oc(/C=C/c3ccc(F)cc3)nc2C#N)CC1	-3.3
47	CCCOC(=O)c1ccc(Cn2nnc3sc4c(c3c2=O)CCC(C)C4)cc1 (stereo not drawn)	-0.03
48	Cc1[nH]c(=O)[nH]c(=O)c1-c1cccc(C(=O)NCCCOC2CCCC2)c1	0.01
49	COc1ccc(N2CCN(S(=O)(=O)c3cc(Br)cc4c3N(C(=O)C3CC3)CC4)CC2)cc1	-0.23
50	COc1ccc(CCNC(=O)c2cc(=O)c3cc(C)cc(C)c3o2)cc1OC	-1
51	CC1CCN(S(=O)(=O)c2ccc3c(c2)N(CC(=O)NC(C)(C)C)C(=O)CS3)CC1	-1.1
52	CC1CCCCN1CCNC(=O)N(Cc1ccc2[nH]ccc2c1)C1CC1 (stereo not drawn)	-2.3
53	COc1ccccc1NC(=O)c1ncn(-c2ccccc2)n1	-1.5
54	Cc1cc(C)c(Cn2c(C3CC(=O)N(c4ccc(F)cc4)C3)nc3ccccc32)c(C)c1 (stereo not drawn)	-1.8
55	CC(C)CCNC(=O)c1ccc2c(c1)N(Cc1ccccc1F)C(=O)c1ccccc1S2(=O)=O	0.29
56	COc1ccccc1NC(=O)Cn1c(=O)n(-c2ccc(C)cc2)c(=O)c2c1cnn2C	0.48
57	COC(=O)c1cc2sc(Cl)cc2n1Cc1nc(-c2ccccc2C)oc1C	-2.1
58	COc1cccc(-c2nc(CS(=O)(=O)CC(=O)Nc3c(C)cc(C)cc3C)c(C)o2)c1	-1.7
59	CC1=C(C(=O)Nc2ccccc2)C(c2ccc(O)cc2)n2nc(SCc3ccccc3)nc2N1 (stereo not drawn)	-1.1
60	N#Cc1ccccc1Cn1c(=O)n(CCCC(=O)NCc2ccccc2Cl)c(=O)c2ccccc21	1.1

# Quoted at random: two compounds from above, in no set order.
No.	SMILES	fixLJ activator
55	CC(C)CCNC(=O)c1ccc2c(c1)N(Cc1ccccc1F)C(=O)c1ccccc1S2(=O)=O	0.29
50	COc1ccc(CCNC(=O)c2cc(=O)c3cc(C)cc(C)c3o2)cc1OC	-1

# Carrying on:
No.	SMILES	fixLJ activator
61	COc1ccc(CCN(C)CCCC(C#N)(c2ccc(OC)c(OC)c2)C(C)C)cc1OC (stereo not drawn)	-1.3&0.76
62	Cc1cccc(-n2c(=O)c3c4c(sc3n3cnnc23)CCCC4)c1	-0.34
63	Cc1cc2ccccc2n1CCNC(=O)c1ccccc1F	-1.3
64	O=C(CN1CCC(O)[C@@](Cc2ccccc2)(C(=O)O)C1)NC1CCCCC1 (stereo partly drawn)	-0.11
65	COC(=O)c1ccc(Cn2c(SCc3ccc(F)cc3)nc3ccncc32)cc1	-0.6
66	COC(=O)Cc1c(C)c2cc3c(c(C)c2oc1=O)OCN(CCc1ccc(OC)cc1)C3	-2.4
67	Cc1ccc(S(=O)(=O)c2nc(-c3ccco3)oc2SCC(C)C)cc1	1.7
68	COc1cc(NC(=O)C(NC(=O)C2CCC(C)CC2)C(C)C)cc(OC)c1OC (stereo not drawn)	-4.9
69	COc1ccc(-n2nc(C(=O)Nc3ccc(C)cn3)c3c4ccccc4n(C)c3c2=O)cc1Cl	-0.71
70	Cc1ccc(C(=O)NC(c2ccc3c(c2)CCO3)C2CC(O)C2)c(=O)[nH]1 (stereo not drawn)	-0.17
71	Fc1cc(F)c2ncc3c(-c4ccccc4)nn(-c4cccc(Cl)c4)c3c2c1	0.43
72	Cc1nc2ccc(S(=O)(=O)N(C)CC(=O)Nc3ccc(Br)c(C)c3)cc2s1	-0.47
73	O=C(NCC1(CO)CCOCC1)c1cc(Cl)cc(Cl)c1	-0.22
74	COc1cc(C(C)NC(=O)N2CC(c3ccccn3)C2)cc(OC)c1OC (stereo not drawn)	0.46
75	CCOC(=O)c1cnc2c(C)cc(Cl)cc2c1NCCc1ccc(OC)c(OC)c1	-1.8
76	COc1cc(OC)c(NC(=O)c2cnn(-c3ccccc3)c2-n2cccc2)cc1Cl	-0.31
77	Nc1nc2c(c(C(=O)NCCc3cc(N4CCCC4)ncn3)n1)CCCC2	-2
78	CN(C)C(=O)NCC(=O)N1CCC2(CC1)OCCc1c2[nH]c2ccccc12	-0.43
79	CCSc1nnc(NC(=O)c2cc(=O)c3cc(C)ccc3o2)s1	-0.56
80	CC(C(=O)N(C)C)N(C)C(=O)c1ccc(-c2ncccc2N)cc1 (stereo not drawn)	1.3
81	CN(C)C(=O)CSc1nnc(CCN)n1-c1ccccc1F	-2
82	Cc1ccc2[nH]c(CNCc3cccnc3-n3cncn3)nc2c1C	-0.26
83	O=c1c(-c2cc(-c3ccc(Cl)cc3)nc3c2COc2ccccc2-3)coc2ccccc12	-0.44
84	CCOc1ccccc1NC(=O)CN1C(=O)CC(c2ccco2)Sc2ccccc21 (stereo not drawn)	0.58
85	CCCCN1C(=O)C(O)(c2c(C)[nH]c3ccccc23)c2cc(Br)ccc21 (stereo not drawn)	-2.1
86	COc1cccc2cc(C(=O)Nc3ccc(C)cc3)c(=O)oc12	0.7
87	COc1ccccc1CNC(=O)CN1CCOCC(CO)C1 (stereo not drawn)	-1
88	Cc1ccc(F)cc1S(=O)(=O)N1CCC(c2nc3ccccc3s2)CC1	-1.3
89	CCOc1cccc(C2c3c(oc4cc(C)c(C)cc4c3=O)C(=O)N2c2nc(C)c(C)s2)c1 (stereo not drawn)	-1.4
90	Cc1ccccc1-c1nc(CN2CCC(C(=O)NC(C)C)CC2)c(C)o1	-0.03
91	CCCn1c(SCC(O)c2cccc(OC)c2)nc2ccccc21 (stereo not drawn)	-0.99
92	CC(=O)N1CCc2c(sc3c2c(=O)n(Cc2ccccc2)c(=O)n3Cc2cccc(Cl)c2)C1	0.71
93	CCCn1nc(C)cc1NC(=O)N1CCC(C(O)Cc2ccccc2)CC1 (stereo not drawn)	0.45
94	C=CCN(Cc1ccccc1OC)C(=O)c1ccc2[nH]c(=O)[nH]c2c1	0.39
95	Cc1ccc(-n2nc(CO)c(C(=O)NCCCc3ccccc3)n2)cc1	-1.8
96	COc1ccc(NC(=O)c2oc3ccccc3c2NC(=O)Cc2cccs2)cc1	2.3
97	CSc1ccc(CC(=O)N2CCN(CCn3cncn3)CC2)cc1	-0.34
98	COc1ccc(-c2nnc(SCc3cccc(Cl)c3)o2)cc1	-0.52
99	CCc1ccccc1NC(=O)C1(C)Cc2ccccc2C(=O)O1 (stereo not drawn)	-1.6
100	Cc1ccc(-n2cccn2)cc1S(=O)(=O)N1CCCC(CNC(=O)C2CC2)C1 (stereo not drawn)	-0.87
101	O=C(Nc1ccc(O)c(-c2nc3ccccc3o2)c1)c1ccc(Br)cc1	0.02
102	COc1ccccc1N1CCN(C(=O)Cn2cnc3sc(C)c(S(=O)(=O)N4CCC(C)CC4)c3c2=O)CC1	0.37
103	CCCCc1ccc(NC(=O)CSc2nc3ccccc3nc2N2CCOCC2)cc1	-0.13
104	Cc1sc2ncn(CC(=O)N3CCN(c4ccc(F)cc4)CC3)c(=O)c2c1S(=O)(=O)N1CCC(C)CC1	-1.1
105	CCOc1ccccc1NC(=O)CCS(=O)(=O)c1cccc2nsnc12	-0.96

# Arranged by molar mass (smallest number first): 5 of the compounds above.
No.	SMILES	fixLJ activator
105	CCOc1ccccc1NC(=O)CCS(=O)(=O)c1cccc2nsnc12	-0.96
96	COc1ccc(NC(=O)c2oc3ccccc3c2NC(=O)Cc2cccs2)cc1	2.3
103	CCCCc1ccc(NC(=O)CSc2nc3ccccc3nc2N2CCOCC2)cc1	-0.13
92	CC(=O)N1CCc2c(sc3c2c(=O)n(Cc2ccccc2)c(=O)n3Cc2cccc(Cl)c2)C1	0.71
104	Cc1sc2ncn(CC(=O)N3CCN(c4ccc(F)cc4)CC3)c(=O)c2c1S(=O)(=O)N1CCC(C)CC1	-1.1

# More records.
No.	SMILES	fixLJ activator
106	CC(C)(C)n1cnc2cc(NCc3ccccc3Cl)ccc21	-3.1
107	COc1cc(C(C)=O)ccc1OCc1cc(C(=O)N2CCC(O)C2)no1 (stereo not drawn)	1.2
108	N#Cc1cccc(CN2CCC3(C2)CN(C(=O)CCn2cnnn2)CCO3)c1 (stereo not drawn)	1.1
109	Cc1cccc(N2CCN(C(=O)c3cc4c(=O)oc5ccccc5c4s3)CC2)c1C	-0.73
110	COCCCNC(=O)c1sc2nc(C)c(C(=O)Nc3ccc(C)cc3C)c(-c3ccc(Br)cc3)c2c1N	-1
111	CCOc1ccc(NC(=O)CSc2oc(-c3ccco3)nc2S(=O)(=O)c2ccc(C)cc2)cc1	-1.4
112	O=C(O)c1cccc(Nc2ncnc3scc(-c4ccccc4)c23)c1	-0.93
113	COc1cc(NC(=O)C(=O)Nc2ccc3nc4n(c(=O)c3c2)CCCCC4)cc(OC)c1OC	-1.6
114	COc1ccc(C2c3cc(OC)c(OC)cc3CC(=O)N2c2ccc(C)cc2)cc1 (stereo not drawn)	-1.2
115	COc1ccc(C(NC(=O)c2cccc(C)c2Cl)C2CC(O)C2)cn1 (stereo not drawn)	-1.4
116	Cc1cc(CC2COCC2NC(=O)C2CCN(C(=O)C3CC3)CC2)on1 (stereo not drawn)	-2.3

# Some of the compounds tested (hit frequency here may not be typical).
